# CHT allo act – CHT positive allosteric modulators, primary screen, cell-based, membrane potential dye, choline EC20 | High affinity choline transporter 1 (Homo sapiens), Q9GZV3 | CHT-expressing cells; active compounds read high; LV-AA mutant CHT in HEK293 cells | B-score at 10 µM | 310,000 compounds, 0.49% hits | AID 488977, 2010;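 active = initial fluorescence not abnormally high and integrated response B-score, plate-corrected, over 3 SD above library mean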
# Target sequence (Q9GZV3 whole entry, looked up): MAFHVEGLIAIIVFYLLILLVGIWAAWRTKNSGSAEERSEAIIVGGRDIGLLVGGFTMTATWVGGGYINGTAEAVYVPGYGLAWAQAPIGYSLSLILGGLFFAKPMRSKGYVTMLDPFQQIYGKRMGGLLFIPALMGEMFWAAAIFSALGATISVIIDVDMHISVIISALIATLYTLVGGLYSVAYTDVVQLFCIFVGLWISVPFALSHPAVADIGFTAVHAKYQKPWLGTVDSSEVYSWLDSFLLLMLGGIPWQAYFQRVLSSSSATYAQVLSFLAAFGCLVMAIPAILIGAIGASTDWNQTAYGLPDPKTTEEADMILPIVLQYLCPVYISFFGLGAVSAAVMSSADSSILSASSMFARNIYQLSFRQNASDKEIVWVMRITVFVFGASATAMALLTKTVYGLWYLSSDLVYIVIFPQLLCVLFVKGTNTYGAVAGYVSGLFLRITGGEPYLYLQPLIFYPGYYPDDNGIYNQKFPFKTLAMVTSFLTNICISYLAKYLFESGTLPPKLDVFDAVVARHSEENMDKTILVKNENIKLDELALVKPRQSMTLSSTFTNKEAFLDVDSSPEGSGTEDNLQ
# CHT inh – inhibitors of human choline transporter CHT; High affinity choline transporter 1 (Homo sapiens), Q9GZV3; CHT-expressing cells, membrane potential dye, choline response; active compounds read low; B-score at 10 µM; 310,000 compounds, 0.86% hits; AID 488975, 2010;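 active = B-score over 3 SD under the library average, and starting fluorescence ratio not unusually high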;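 also: choline stimulus applied at its EC90 after an EC20 pre-addition; B-score computed on integrated fluorescence ratio after choline addition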
# Calls only; i = inactive.
entry | SMILES | CHT allo act | CHT inh
1 | Cc1ccc(NC(=O)CC2SC(=NCC3CCCO3)NC2=O)cc1Cl (stereo not given) | i | i
2 | O=C(NC1CCOCC1)C1CCC(=O)N(Cc2cccc(C(F)(F)F)c2)C1 (stereo not given) | i | i
3 | Cc1cc(C)c(S(=O)(=O)Nc2cc(C)on2)c(C)c1 | i | i
4 | O=C(NC1CCC(O)CC1)c1ccc(-c2ccc([N+](=O)[O-])cc2)o1 (stereo not given) | i | i
5 | CCOc1ccccc1C(=O)N[C@H](C(=O)OCc1cc([N+](=O)[O-])cc2c1OCOC2)C(C)C | i | i
6 | O=[N+]([O-])c1ccc(NCCCO)c(C(F)(F)F)c1 | i | i
7 | CNC(=S)NNC(=O)c1ccc2c(c1)OCO2 | i | i
8 | Nn1c(SCC(=O)NC2CCCCC2)nnc1C1CC1 | i | i
9 | COc1ccc(NC(=O)Nc2cc(NC(=O)Nc3ccc(OC)cc3)c(C)nc2C)cc1 | i | i
10 | COc1ccc([N+](=O)[O-])cc1NC(=O)CN(C)S(=O)(=O)c1ccccc1 | i | i
11 | COc1cccc(C(C(=O)NC(C)(C)C)N(Cc2ccco2)C(=O)CCC(=O)Nc2cc(C)on2)c1OC (stereo not given) | i | i
12 | CCOC(=O)N1CCN=C1SCc1ccc(C(F)(F)F)cc1 | i | i
13 | NS(=O)(=O)c1cccc(NC(=O)C2CC(=O)N(Cc3ccco3)C2)c1 (stereo not given) | i | i
14 | COc1ccc(OC)c(C(c2nnnn2Cc2ccccc2)N2CCN(C)CC2)c1 (stereo not given) | i | i
15 | O=C(Cn1cnc2ccccc2c1=O)OCCCCN1C(=O)c2ccccc2C1=O | i | i
16 | CC(C)Nc1nc(Cl)nc(NN(C)c2nc(N(C)C)nc(N(C)C)n2)n1 | i | i
17 | Cc1ccc(S(=O)(=O)CC(=O)Nc2nnc(C(C)(C)C)s2)cc1 | i | i
18 | CC(NC(=O)c1ccccc1N)c1ccccc1 (stereo not given) | i | i
19 | Clc1ccc(CSc2nnc(/C=C/c3ccccc3)o2)cc1 | i | i
20 | COc1ccc(CN2C(=O)C(CC(C)C)Nc3ncnc(N4CCCCC4)c32)cc1 (stereo not given) | i | i
21 | Cc1[nH]nc(SCC(=O)NCCc2ccccc2)c1[N+](=O)[O-] | i | i
22 | CCN(CC(=O)Nc1c(F)cccc1F)C(=O)C1=COCCO1 | i | i
23 | COc1ccc(/C=C/C(=O)OCC(=O)N2CC(=O)Nc3ccccc32)cc1 | i | i
24 | Cc1ccc(-n2c3c(c(=O)[nH]c2=O)C(C(F)(F)F)(C(F)(F)F)NC(=O)N3)cc1 | i | i
25 | N#CCSc1nc(-c2ccccc2)cs1 | i | i
26 | C(=N\N(c1ccccc1)c1ccccc1)/c1ccc2c(c1)OCO2 | i | i
27 | COC(=O)c1ccc(N=NN2CCOCC2)cc1 | i | i
28 | CC1CCC/C(=N\Nc2ccc(Cl)c(C(=O)O)c2)C1 (stereo not given) | i | i
29 | Cc1ccc(CNC(=O)C(=O)NCC2OCCN2C(=O)c2ccc3c(c2)OCO3)cc1 (stereo not given) | i | i
30 | COc1ccc(C(=O)N=c2sccn2C)cc1 | i | i
31 | Cc1c2c(nc3nc4ccccc4n13)CC(C)(C)CC2=O | i | i
32 | Cc1ccccc1C(=O)Nc1ccc(N2CCN(C(=O)c3ccco3)CC2)cc1 | i | i
33 | CC1CCCN(C(=O)c2nn(C)c3c2CS(=O)(=O)c2ccccc2-3)C1 (stereo not given) | i | i
34 | COc1cccc(C2CC(c3ccc(C(C)C)cc3)n3nc(N)nc3N2)c1 (stereo not given) | i | i
35 | Cc1ccccc1Nc1nc(N)nc(CSc2ccccc2)n1 | i | i
36 | O=C(Oc1ccc(N2C(=O)CCC2=O)cc1)c1ccco1 | i | i
37 | CC(C)CNc1oc(-c2ccc(F)cc2)nc1C#N | i | i
38 | COc1nc(C)c2cc(C)oc2n1 | i | i
39 | C=CCC1NS(=O)(=O)OCC1C(C)C (stereo not given) | i | i
40 | CSc1nc2ccccc2n1C(=O)Oc1ccccc1 | i | i
41 | O=C(Nc1cccc(Cl)c1)OC1CCCCc2cccnc21 (stereo not given) | i | i
42 | CN(CC(=O)Nc1ccc(F)cc1)C(=O)COC(=O)C1=COCCO1 | i | i
43 | CCc1ccccc1NC(=S)N(CCOC)C(C)c1ccco1 (stereo not given) | i | i
44 | Cc1nc(C(=O)NC2CCCCC2)sc1C1(C)CC(c2cccc([N+](=O)[O-])c2)=NO1 (stereo not given) | i | i
45 | COc1ccc(-n2c(SCC(N)=O)nnc2-c2ccc(NS(=O)(=O)c3ccc(C)cc3)cc2)cc1 | i | i
46 | COc1cccc2c1SCc1ccccc1C2CC(N)=O (stereo not given) | i | i
47 | Nc1nnc(Cc2ccc(F)cc2)s1 | i | i
48 | O=C(NCc1ccccc1)C1CCCN(S(=O)(=O)c2ccc(F)cc2)C1 (stereo not given) | i | i
49 | Cc1ccc(-c2nn(-c3ccccc3)cc2C(=O)Nc2cccc(S(=O)(=O)N3CCOCC3)c2)cc1 | i | i
50 | Cc1cc(NC(=O)Cn2nc(-c3ccccc3F)ccc2=O)ccc1-n1cnnn1 | i | i
51 | Cn1c(C(=O)N2CCC(C(N)=O)CC2)cc2c(=O)n(C)c3ccccc3c21 | i | i
52 | CCOc1ccc(-c2csc(NC(=O)C3CCCO3)n2)cc1 (stereo not given) | i | i
53 | O=S(=O)(c1ccc(Cl)cc1)N1c2ccccc2Oc2nc3ccccc3nc21 | i | i
54 | O=C(CSc1nnnn1Cc1ccccc1)Nc1ccccc1 | i | i
55 | COc1cc(-c2nc3ccccn3c2/N=C/c2cc(OC)c(OC)c(OC)c2)ccc1O | i | i
56 | CC(C)C[C@H](NC(=O)OC(C)(C)C)C(=O)NCC1CCC(C(=O)N[C@@H](Cc2ccccc2)C(=O)O)CC1 (stereo not given in full) | i | i
57 | CC(C)(C)NC(=O)C1CCN(C(=O)c2ccc(Br)cc2)CC1 | i | i
58 | Cc1nc(SCc2ccc(O)c([N+](=O)[O-])c2)c([N+](=O)[O-])[nH]1 | i | i
59 | CC(C)C(C(=O)NCc1ccco1)N(Cc1ccco1)C(=O)CNS(=O)(=O)c1ccccc1 (stereo not given) | i | i
60 | Cc1nc2cncc(Br)c2n1C | i | i

# Following part:
entry | SMILES | CHT allo act | CHT inh
61 | CCn1nc(C(=O)OC2CCOC2=O)c2ccccc2c1=O (stereo not given) | i | i
62 | CCSc1cc(C)nc2c(-c3ccccc3)cnn12 | i | i
63 | COc1cc(CNc2nnnn2C)ccc1OCc1c(F)cccc1Cl | i | i
64 | Cc1ccc(N2CCN(S(=O)(=O)c3ccc(-n4cnnn4)cc3)CC2)c(C)c1 | i | i
65 | CC1=CCC(C(=O)O)C(C(=O)Nc2cccnc2)C1 (stereo not given) | i | i
66 | Cc1cccc(C)c1NC(=S)NCCSc1ccc(Cl)cc1 | i | i
67 | Cc1cc(N=Cc2c(O)n(-c3cccc(Cl)c3)c(=O)c3ccccc23)no1 | i | i
68 | CN(c1ccccc1)c1nc(N)c([N+](=O)[O-])c(Nc2cccc(F)c2)n1 | i | i
69 | O=C(CSc1ncnc2scc(-c3ccccc3)c12)Nc1ccc(C(=O)O)cc1 | i | i
70 | O=C(O)CCC(=O)Nc1ccc(N2CCOCC2)cc1 | i | i
71 | COc1ccc(OC)c(CCNC(=O)Cn2cccc2C(=O)c2ccccc2)c1 | i | i
72 | CC(=O)N1CCCc2cc(S(=O)(=O)NC(C(=O)NCc3ccc(C)cc3)C(C)C)ccc21 (stereo not given) | i | i
73 | O=C(CSc1nc2nccnc2c(=O)n1Cc1cccs1)Nc1ccccc1 | i | i
74 | COc1ccc(Br)cc1/C=N/NC(=O)c1ccco1 | i | i
75 | COc1ccc(C2(C(=O)Nc3ccccc3)CCOCC2)cc1 | i | i
76 | CSc1ccccc1OCc1cc(C(=O)NCCC2CCCCO2)no1 (stereo not given) | i | i
77 | COC(=O)C1=C(C)NC(C)=C([N+](=O)[O-])C1c1ccccc1C(F)(F)F (stereo not given) | i | i
78 | CN(CCc1ccccn1)C(=O)CCNC(=O)Cn1cnc2ccccc2c1=O | i | i
79 | Cc1ccc(NC(=O)COc2cccnc2[N+](=O)[O-])cc1S(=O)(=O)N1CCOCC1 | i | i
80 | COc1ccc(C(=O)Oc2cccnc2)cc1OC | i | i
81 | CC(O)C(=O)N/N=C/c1cccc(Cl)c1Cl (stereo not given) | i | i
82 | COC(=O)CCCC1=CC2=C(c3ccccc3)C(=O)C(C)(OC(=O)C3CCCC3)C(=O)C2=CN1C(CO)CO (stereo not given) | i | i
83 | CCc1ccc(NC(=S)N2CCN(c3cccc(C(F)(F)F)c3)CC2)cc1 | i | i
84 | CC(=O)CSc1nc(C(F)(F)F)cc(=O)n1-c1ccccc1 | i | i
85 | O=c1c2ccccc2nc2n1C(CSCc1ccc(Cl)cc1Cl)CS2 (stereo not given) | i | i
86 | Cc1ccc(/C=C2\C(=O)Nc3ccccc32)o1 | i | i
87 | CCCOP(=O)(c1ccc(N(C)C)cc1)C(O)c1cc(OC)c(OC)c(OC)c1 (stereo not given) | i | i
88 | COc1ccccc1N1CCN(C(=O)c2ccc(-c3ccccc3)cc2)CC1 | i | i
89 | O=C1O/C(=C\C(=O)N2CCOCC2)c2ccccc21 | i | i
90 | CCCCCCCOC(=O)c1nc(Cl)c(Cl)c(N)c1Cl | i | i
91 | O=C(Nc1ccccc1)c1cccc(N2CCCC2=O)c1 | i | i
92 | c1ccc(Cn2c(Nn3cnnc3)nc3ccccc32)cc1 | i | i
93 | Cc1cccc(N2C(=O)c3ccc(C(=O)Nc4ccccn4)cc3C2=O)c1 | i | i
94 | O=C1[C@H]2[C@@H](C3CC3)N3C(=O)CN(Cc4ccccn4)C(=O)[C@@]3(Cc3ccccc3)[C@H]2C(=O)N1c1ccccc1 | i | i
95 | CC(O)CNCCOc1ccccc1-c1ccccc1 (stereo not given) | i | i
96 | O=C1c2ccccc2C(=O)N1CCCCN(C(=O)c1ccc(Cl)s1)c1ccc(Cl)cc1 | i | i
97 | NC(=O)CC1C(=O)N(c2ccc(Cl)cc2)C(=S)N1NC(=O)c1cccc(F)c1 (stereo not given) | i | i
98 | CCN(CC)S(=O)(=O)c1ccc2c(c1)nc(SCn1nnc3ccccc3c1=O)n2CC | i | i
99 | C#CCNC(=O)C1=C[C@H](c2ccc3c(c2)OCO3)C[C@H](OCCCCO)O1 | i | i
100 | COc1ccc2nc(SCC(=O)c3ccco3)[nH]c2c1 | i | i
101 | O=C(N/N=C/c1ccc2c(c1)OCO2)c1sc2cc(Cl)ccc2c1Cl | i | i
102 | Cc1ccc(-n2ncc3c2CCCC3NC(=O)CCCN2CCCC2=O)cc1C (stereo not given) | i | i
103 | O=C(C1CCN(C2CCN(C/C=C/c3ccccc3)CC2)CC1)N1CCOCC1 | i | i
104 | Cc1ccc(C)c(NC(=S)N(CCc2ccncc2)C(C)C)c1 | i | i
105 | COc1cccc(CN2CCN(C(=O)c3ccc(-c4ccccc4)cc3)CC2)c1OC | i | i
106 | Cn1c(=O)c2[nH]c(CN3CCN(Cc4ccccc4)CC3)nc2n(C)c1=O | i | i
107 | CCOC(=O)Nc1oc2ccccc2c(=O)c1CN1CCOCC1 | i | i
108 | COc1ccc(Cl)cc1NC(=O)C1Cc2cc(S(=O)(=O)N3CCCC3)ccc2N1C(C)=O (stereo not given) | i | i
109 | CCc1cc(=O)n2[nH]c(-c3ccccc3)c(-c3ccccc3)c2n1 | i | i
110 | CC(C)Nc1nc(-c2ccccn2)nc(-c2ccccc2)c1C#N | i | i
111 | CCOC(=O)c1nc(C)n(-c2ccc([N+](=O)[O-])cc2)n1 | i | i
112 | Cc1ccc(NC(=O)N2CCC(O)(c3cccnc3)CC2)cc1 | i | i
113 | NNC(=S)Nc1cccc(-c2n[nH]c(=S)o2)c1 | i | i
114 | COc1ccc2nc(-n3c(C)ccc3C)sc2c1 | i | i
115 | CCC(C)Sc1cc(-c2nc3ccccn3c2NC2CCCCC2)ccc1OC (stereo not given) | i | i
116 | CCOc1ccc(/C=N/NC(=O)c2nnn(-c3nonc3N)c2-c2ccc(OCC)cc2)cc1 | i | i
117 | CC(C(=O)NCc1ccc(F)cc1)n1ccc2cc(S(=O)(=O)N3CCCC3)ccc21 (stereo not given) | i | i
118 | COc1cccc(NC(=O)CN(C)C(=O)CNC(=O)c2ccccc2F)c1 | i | i
119 | CCn1cc(CNC(=O)c2cc(-c3ccccc3OC)nc3ccccc23)c(C)n1 | i | i
120 | O=C(NCCOc1ccccc1)C1CCCN1C(=O)c1cccs1 (stereo not given) | i | i

# Additional entries follow.
entry | SMILES | CHT allo act | CHT inh
121 | CCOC(=O)C(C(=O)OCC)N(C#N)c1nc(OC)nc(N(C)C)n1 | i | i
122 | Cc1ccc2c(c1)C(c1ccccc1)C(=O)O2 (stereo not given) | i | i
123 | Cn1c(SCC(=O)N2CCCC2)nc2ccccc2c1=O | i | i
124 | COc1ccc(NC(=O)Nc2ccc(F)cc2)c(C)c1 | i | i
125 | Cn1c(=O)n(Cc2ccccc2Cl)c(=O)c2c1[nH]c(=S)n2C | i | i

# These rows are one share of the data; most or all hits stand in other tables.
